Bfl-1 A1 inh: inhibitors of the anti-apoptotic protein A1, read as caspase activation. MEF A1-2A-BIM cells, Caspase-Glo 3/7 luminescence, 3 h; percent of clofoctol response, vehicle zero. caspase activation, % (no concentration beside the values). actives 0.066% (n = 330,000);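 active = over half of replicate activation scores above 10%, or exactly half above 10 with the replicate mean above 10; inconclusive = replicate mean below 10 yet half the replicates above 10; inactive = over half of replicates below 10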;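 also: wells of about 30 µL received 50 nL stock; many hits fall short of the cut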
MLL AF4-AF9 inh: inhibitors of human MLL-AF4/AF9 interaction | actives 0.47% (n = 350,000) | AID 651704 | inhibition, % at 10 µM | AlphaScreen, biotin-AF4 peptide binding to FLAG-AF9;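 active = every replicate reaching a set inhibition limit, whatever the replicate mean, cut at about 25% in these data; inconclusive = mean inhibition reaches that limit but some replicates miss it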;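 also: 0% = plate neutral control median and 100% = total signal loss; the record names both 10 and 1 µM as test concentration; the first replicate is given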
Target sequence (P42568 whole entry, looked up): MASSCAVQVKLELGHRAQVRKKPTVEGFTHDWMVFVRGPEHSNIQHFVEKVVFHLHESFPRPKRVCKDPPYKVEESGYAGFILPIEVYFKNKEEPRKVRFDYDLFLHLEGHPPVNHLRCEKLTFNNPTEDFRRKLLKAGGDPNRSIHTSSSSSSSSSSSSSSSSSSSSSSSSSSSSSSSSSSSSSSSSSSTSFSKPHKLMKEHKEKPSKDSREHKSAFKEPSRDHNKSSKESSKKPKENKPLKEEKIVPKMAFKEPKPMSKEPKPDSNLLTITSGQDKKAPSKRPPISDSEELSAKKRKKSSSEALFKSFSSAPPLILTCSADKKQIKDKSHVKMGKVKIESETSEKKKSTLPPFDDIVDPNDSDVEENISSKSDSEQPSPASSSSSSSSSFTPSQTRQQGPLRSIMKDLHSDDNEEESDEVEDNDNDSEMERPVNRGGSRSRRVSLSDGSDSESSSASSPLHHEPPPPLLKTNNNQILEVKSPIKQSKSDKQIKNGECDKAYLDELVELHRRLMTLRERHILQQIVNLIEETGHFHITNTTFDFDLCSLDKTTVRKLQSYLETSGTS
Vif TR-FRET: inhibitors of Vif binding to APOBEC3G peptide, primary screen, biochemical, TR-FRET, GST-Vif 1-94, biotin-A3G peptide, dose response retest (AID 1117319) | TR-FRET GST-Vif / biotin-A3G peptide binding; higher % means a stronger effect; test concentration not given here; strong numbers were not always called active | inhibition, %; hits with a dose series show IC50 in µM | actives 0.57% (n = 260,000);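 active = above the screen mean plus three standard deviations and confirmed in dose response; inconclusive = results disagree or hit not tested in dose response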;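 also: Vif residues 1-94 fused to GST binding biotinylated APOBEC3G peptide 110-148; 0% = full assay without inhibitor and 100% = GST in place of GST-Vif; retest series ran down from 100 µM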
Ecoli rRNA inh: inhibits bacterial ribosomal RNA function over humanized ribosomes; E. coli WT GFP vs humanized-ribosome RFP mutants, fluorescence, 24 h; active compounds read low; DMSO median 0, no signal -100; actives 1.6% (n = 350,000); GFP signal change (wild-type ribosome), % (no concentration beside the values);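 active = significant combined selectivity score with lowered wild-type GFP, culture density cut under 30%, mutant RFP and density less affected; inactive = any of these conditions unmet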; also: one replicate is shown; some compounds called inactive have numbers as strong as hits
Beta apoptosis: blocks beta cell apoptosis; INS-1E cytokine-induced death, ATP luminescence, 48 h; percent of positive-control rescue, neutral wells zero; protection from apoptosis, % (test concentration not listed); actives 0.8% (n = 300,000); AID 435005;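 active = all replicates at 75% or more, or half of them and the mean; inconclusive = half reach 75% but not the mean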;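 also: 0% = cytokine-treated negative control wells and 100% = positive control rescue; higher means more ATP so stronger rescue from cytokine killing; wells of about 40 µL received 100 nL stock; the first replicate is given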
RanGTP-Imp inh: disruptors of Ran-importin-beta complex formation – biochemical, FRET, CFP-Ran, YFP-importin-beta, homogeneous, primary screen | inhibition, % (test concentration not listed) | cell-free CFP-Ran/YFP-importin-beta FRET ratio | AID 2216 | actives 1.1% (n = 300,000);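 active = most replicates above 15%; inconclusive = exactly half above 15%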;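 also: 0% = DMSO wells and 100% = Ran loaded with GDP instead of GTP; wells of about 40 µL received 100 nL stock; the first replicate is given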
T cruzi inh: T. cruzi replication inhibition. inhibition, % (test concentration not listed). T. cruzi beta-gal in NIH3T3, luminescence, 90 h. actives 1.4% (n = 300,000). AID 1885;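 active = mean inhibition across valid replicates above about 55%, limit read from the data; inconclusive = mean below that limit but half or more replicates reach it; inactive = mean below it, under half of replicates reach it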;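 also: signal also drops with host cell toxicity which is not excluded here; 0% = plate median of DMSO wells and 100% = zero luminescence signal; higher percent means less beta-gal luminescence so fewer parasites; stock transfer was 50 nL into about 50 µL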
Calb FLC: affects C. albicans growth with fluconazole; C. albicans CaCi-2 (fluconazole-resistant clinical isolate) + fluconazole, Alamar Blue growth, 48 h; growth inhibition, % (no concentration beside the values); actives 0.57% (n = 300,000); AID 1979;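 active = most replicates above 75%; inconclusive = exactly half above 75%; inactive = most below 75%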;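 also: all wells also contain fluconazole at 8 µg/ml as a sub-toxic cotreatment; 0% = median of DMSO wells and 100% = median of geldanamycin control wells; wells of about 8 µL received 7.5 nL stock; the first replicate is given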
Ecoli rRNA inh OD600: second read-out of Ecoli rRNA inh, no call of its own (marks repeat the call); OD600 change, %; measured here: OD600 growth;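 optical density of the mix in the first replicate; 0 = DMSO median and -100 = no signal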
Ecoli rRNA inh RFP: further read-out of Ecoli rRNA inh, marked with its call; RFP signal change, %; measured here: RFP humanized mutant strains;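 first replicate; 0 = DMSO median and -100 = no signal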
* marks the source's active call; other numbers are inactive results; ? = inconclusive; / = not tested or not shown.

# | molecule | Bfl-1 A1 inh | MLL AF4-AF9 inh | Vif TR-FRET | Ecoli rRNA inh | Ecoli rRNA inh OD600 | Ecoli rRNA inh RFP | Beta apoptosis | RanGTP-Imp inh | T cruzi inh | Calb FLC
1 | CCCN1CCN(CCCNC(=O)Cn2nc(C)n3c(cc4cc(OC)ccc43)c2=O)CC1 | 0.2 | 3.0 | -15% | 4 | 5 | -0.6 | -3 | 3.8 | 1 | 7
2 | O=C(NC(NC(=S)Nc1ccccc1O)C(Cl)(Cl)Cl)c1ccco1 (stereo not given) | -0.1 | 1.3 | 4% | -23 | -19 | 9.3 | 0 | -2.8 | -9 | -1
3 | Cc1ccc(N2CCN(c3ccc(C)cc3)C2c2cccnc2)cc1 | -0.2 | -31 | -4% | 7 | 5 | -3.9 | -5 | -0.6 | 59* | -12
4 | CCCCC(CC)C(=O)Nc1cc(C(=O)NCCC)ccc1N1CCC2(CC1)CC(c1ccccc1)=NO2 (stereo not given) | -1.2 | -19 | / | 1 | -19 | -9.5 | 8 | 3.7 | 50 | 9
5 | C=CCn1cnc2c(c1=O)c1nc3ccccc3nc1n2-c1ccc(C)cc1 | 0.0 | / | 29% | / | / | / | -14 | -0.5 | -11 | -17
6 | CC(=O)c1ccc(NC(=O)CSc2nc3ccccc3c(=O)n2CCCN2CCOCC2)cc1 | -0.5 | 4.0 | / | 2 | -9 | 10 | -12 | / | / | /
7 | CC(CNc1ccc([N+](=O)[O-])c2cccnc12)Nc1c([N+](=O)[O-])cc(C(F)(F)F)cc1[N+](=O)[O-] (stereo not given) | -0.5 | / | / | / | / | / | 2 | 0.5 | 35 | 15
8 | Cn1c(/C(C#N)=C(\O)c2cc(Cl)sc2Cl)nc2ccccc21 | -0.9 | -2.1 | / | -1 | -8 | -3.8 | / | -0.5 | -14 | -6
9 | CCc1nc(C(N)=O)c2[nH]c(=O)n(-c3ccccc3F)c2n1 | 1.1 | -1.2 | -7% | 4 | 3 | -2.5 | -1 | 1.0 | -9 | 17
10 | COc1ccc(OC)c(S(=O)(=O)N2CCCc3ccccc32)c1 | -0.5 | -8.2 | 2% | / | / | / | -4 | 9.0 | 3 | 1
11 | O=C(CSc1nnc(CNC(=O)c2ccco2)o1)Nc1ccccc1C(F)(F)F | -0.5 | 1.7 | 0% | 7 | 8 | -1.3 | -2 | 1.4 | 3 | -2
12 | CCOCCn1ccc2c(OCC(=O)Nc3cc(OC)ccc3OC)cccc2c1=O | 0.0 | -0.7 | -1% | 0 | 7 | -0.2 | / | 6.5 | 13 | 6
13 | N#Cc1nc(Cc2cccc3ccccc23)oc1N1CCC(C(N)=O)CC1 | -0.1 | / | 2% | / | / | / | -10 | 0.9 | -1 | 12
14 | O=C(Cc1n[nH]c(=O)c2ccccc12)NCc1ccc(Cl)cc1 | 1.1 | -1.9 | -6% | 1 | 6 | 7.9 | 0 | 2.4 | -18 | -1
15 | Nc1nc(SCC(=O)Nc2ccc(Br)cc2Br)n[nH]1 | 1.0 | 8.3 | -1% | -28 | -46 | -9.6 | -4 | / | / | /
16 | CC(Sc1nnc(-c2ccc(Cl)cc2)n1C)C(N)=O (stereo not given) | 0.3 | / | 1% | / | / | / | / | -0.2 | 1 | ?
17 | O=C(NCc1ccccc1C(F)(F)F)C1CC(c2ccc(C(F)(F)F)cc2)=NO1 (stereo not given) | -0.8 | 7.1 | 0% | 1 | 4 | 1.8 | 0 | 17* | -23 | -1
18 | COc1ccc(OCC(O)Cn2ccnc2C)cc1 (stereo not given) | 0.1 | / | -7% | / | / | / | -8 | ? | 4 | -6
19 | N/C(=N\S(=O)(=O)c1ccccc1)c1ccc([N+](=O)[O-])cc1 | 0.8 | / | / | / | / | / | / | 5.1 | -24 | ?
20 | CSc1nnc(-c2ccc(S(=O)(=O)N3CCCC3)cc2)n1C | 0.3 | / | -2% | 1 | 3 | -1.7 | -6 | -0.2 | 11 | -17
21 | C/C(=C\c1ccccc1)CN1CCN(C(C)C)C(CCO)C1 (stereo not given) | -0.3 | -1.2 | / | 15 | 12 | 0.5 | -1 | 2.2 | 13 | 0
22 | O=C(Nc1ccccc1NS(=O)(=O)c1ccc(F)cc1)C1CCCC1 | 0.7 | 0.1 | -7% | -19 | -16 | -4.2 | 2 | 1.3 | 2 | 15
23 | CS(=O)(=O)N1CCC(C(=O)Nc2ccc(F)c(Cl)c2)CC1 | 0.4 | -2.3 | -15% | 2 | -8 | -1.4 | 3 | -1.9 | -5 | -4
24 | Cc1ccc(C(=O)NCCC(=O)N2CCC3(CC2)NCCc2[nH]cnc23)cc1 | 0.2 | 3.3 | 6% | -25 | -38 | -8.4 | -7 | -0.3 | -4 | -12
25 | Cc1ccccc1N1CCN(C2CCCN(C(=O)c3cn4c(C)cccc4n3)C2)CC1 (stereo not given) | 0.0 | 0.9 | / | 0 | 4 | 0.9 | -6 | 0.5 | -6 | 4
26 | O=C(COC(=O)c1c(Cl)cccc1Cl)NC1CCCCCCC1 | 0.9 | -0.9 | / | -32 | -60 | -12 | -2 | / | / | /
27 | O=C(CNc1ccccc1F)N/N=C/C1CC=CCC1 (stereo not given) | -0.6 | 1.5 | -1% | 15 | 8 | 1.0 | -1 | / | / | 123*
28 | COc1ccc(C(CNC(=O)CCOc2ccccc2)N(C)C)cc1 (stereo not given) | -0.3 | / | 28% | / | / | / | -6 | 2.3 | -2 | -21
29 | CNC(=S)N1CCN(c2ccc(Cl)c(Cl)c2)CC1 | -1.6 | 5.5 | 2% | -46 | 51 | -12 | -3 | 3.1 | 33 | -39
30 | CCC(=O)N1c2ccc(S(=O)(=O)NCc3ccccc3)cc2CC1C (stereo not given) | -0.1 | -5.6 | / | -3 | -15 | -6.9 | 3 | 2.2 | -12 | -11
31 | Cc1ccc(NC(=O)c2cc(S(=O)(=O)c3ccccc3)ccc2Cl)cc1 | -1.0 | / | -5% | / | / | / | 4 | -0.2 | 9 | 47
32 | Cc1c(Cl)cccc1NC(=S)NCc1cccs1 | 0.2 | -1.1 | -3% | 2 | -2 | -0.8 | -10 | -0.1 | 11 | -50
33 | CCN(CC)CCP(=O)(c1ccccc1)c1ccccc1 | 0.4 | / | ? | / | / | / | 8 | 2.7 | -11 | 0
34 | O=C(NCc1cn2ccsc2n1)c1c(F)cccc1Cl | 0.4 | 7.5 | 3% | 14 | 13 | 3.6 | -2 | 2.2 | -7 | -2
35 | CC(=O)Nc1nc(-c2ccc3c(c2)CCO3)cs1 | -3.0 | -1.8 | -1% | -6 | -5 | -2.8 | -1 | 0.9 | -2 | 12
36 | S=C1NCCOCCOCCOCCNC(=S)NCCOCCOCCOCCN1 | 0.0 | / | / | / | / | / | -2 | -1.3 | -11 | 6
37 | O=C(O)c1ccc(NC(=S)NC(=O)c2ccc(-c3ccccc3)cc2)cc1 | 0.4 | -1.7 | 1% | -9 | -4 | -1.4 | 8 | -1.5 | -4 | 84*
38 | COc1ccc(C2CC(c3ccc(Br)cc3)Nc3nc(N)nn32)cc1 (stereo not given) | 0.4 | / | -2% | / | / | / | / | -1.6 | 44 | 12
39 | COc1ccc(-c2cc(C(=O)NCc3ccco3)c3ccccc3n2)c(OC)c1 | 0.7 | 1.2 | / | -11 | -17 | -3.4 | -4 | 2.4 | -3 | -2
40 | O=C(/C=C/c1ccc(F)cc1)NCCc1ccc2c(c1)OCCO2 | 0.1 | -38 | -8% | -23 | -20 | 0.7 | 2 | -2.1 | -6 | 4
41 | COc1cc(C(C(=O)NC(C)(C)C)N(C(=O)CNC(=O)c2cccs2)c2cccnc2)cc(OC)c1OC (stereo not given) | 0.6 | -3.7 | / | 7 | 12 | -1.5 | 1 | -3.3 | -4 | -9
42 | COC(=O)c1ccc(CSc2nnnn2Cc2ccccc2)cc1 | -0.6 | / | -2% | / | / | / | -5 | 1.6 | 2 | -10
43 | O=C1CC(c2ccccc2)Cc2nc(N3CCc4ccccc4C3)ncc21 (stereo not given) | -0.4 | / | -12% | / | / | / | -9 | 3.7 | 23 | 14
44 | O=C(CCNS(=O)(=O)c1ccc(Cl)cc1)NCc1cccs1 | 0.3 | -1.5 | / | -22 | -25 | -0.5 | 12 | -0.9 | -4 | -3
45 | CN(C)C(CNC(=O)c1ccc2[nH]c(=O)c(=O)[nH]c2c1)c1ccco1 (stereo not given) | 0.0 | -2.6 | 7% | 8 | 14 | 0.5 | 4 | / | / | /
46 | O=C(CCC(=O)Nc1ccc(F)cc1)N/N=C/c1cccnc1 | -0.1 | -0.6 | / | 12 | 8 | 0.6 | / | -1.8 | -12 | 1
47 | O=C(Cc1c(O)c2ccccc2oc1=O)c1ccc(C(F)(F)F)cc1 | -1.1 | -0.6 | -4% | 11 | 4 | 3.6 | -10 | ? | 4 | 3
48 | CC(C)CCNC(=O)NC(=O)CSc1ncccn1 | -0.4 | -3.9 | 5% | / | / | / | 0 | -0.4 | -7 | 2
49 | CC1CCN(S(=O)(=O)c2ccc3c(c2)N(CC(=O)NCCCOC(C)C)C(=O)CS3)CC1 | -0.3 | -1.7 | -8% | -6 | -12 | 1.1 | 2 | 2.6 | -4 | 3
50 | CCc1cc2cc(C(=O)Nc3ccc(F)cc3)sc2s1 | -5.4 | / | -42% | / | / | / | 2 | 0.1 | -7 | -26
51 | Cc1nc(N2CCN(c3ccccc3O)CC2)c2c(-c3ccccc3)csc2n1 | -0.2 | 4.4 | / | 0 | 1 | 1.9 | -9 | 0.4 | -6 | -5
52 | O=C(Cc1csc(N2CCOCC2)n1)N/N=C/c1ccc(O)c(O)c1O | / | -5.7 | 1.3µM* | 44 | -11 | 26 | / | 2.7 | 19 | 0
53 | CCCCN(C(=O)c1ccc([N+](=O)[O-])s1)c1c(N)n(CC(C)C)c(=O)[nH]c1=O | -0.5 | 2.8 | 4% | -1 | -1 | 1.3 | / | -0.9 | 8 | -1
54 | CC(C)CC(=O)Nc1cccc(-c2cn3ccsc3n2)c1 | 0.7 | / | ? | / | / | / | -2 | -2.1 | 1 | 13
55 | Cc1cc(C)nc(NS(=O)(=O)c2ccc(NC(=O)C3(c4ccc([N+](=O)[O-])cc4)CCCC3)cc2)n1 | 0.4 | / | 9% | / | / | / | -4 | 0.2 | -2 | 23
56 | CC(C)NC(=O)N1CC(c2ccccc2)C(c2ccc(Cl)cc2)=N1 (stereo not given) | -1.9 | 8.9 | / | -27 | -38 | -0.5 | 4 | -0.9 | 32 | 14
57 | O=C(NNS(=O)(=O)c1ccccc1[N+](=O)[O-])c1ccc(F)cc1 | 0.9 | -3.0 | -1% | -12 | -4 | 18 | 0 | / | -13 | -4
58 | CCCc1cc(=O)[nH]c2nnc(SCC(=O)NCc3ccc4c(c3)OCO4)n12 | -1.0 | -2.8 | -5% | 0 | 6 | -1.7 | -4 | -2.6 | 0 | -5
59 | CCOc1cc(NC(=S)NCc2ccco2)c(OCC)cc1NC(=O)CC(C)C | -0.2 | / | 10% | / | / | / | -12 | 0.9 | -3 | 1

A portion of the library; rates above refer to the full screens.
